RE007 growth inh: qHTS Assay for Inhibitors of the HIV-1 protein Vpr | 0.21% of 360,000 active | S. pombe RE007 Vpr strain, BacTiter-Glo ATP luminescence, 24 h; control for the full effect not named in the record | Potency, µM (titrated, usually from 92.2 µM), inactives show top-dose activity change, negative = less growth; active = well fitted falling curve with a large enough effect; inconclusive = small, poorly fitted or top-dose-only effect; inactive = no such curve, though single readings can be large or run the other way;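 note: % is set by controls: 0 for no effect and ±100 for the full control effect; nearly all actives have a fitted effect of over 50% in size; the assay follows cell death caused by Vpr and the record does not say whether a fall means rescue or toxicity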
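Fission yeast strain RE007, carrying one chromosomally integrated HIV-1 vpr copy, was seeded at OD 0.01 in PMG+AL medium with 23 nL pinned compound. After 24 h at 30 °C and 99% humidity, viability was read by BacTiter-Glo luminescence.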
NS1 inh: qHTS Assay for Inhibitors of Influenza NS1 Protein Function. S. cerevisiae slowed by influenza A NS1, growth recovery by OD600. Potency, µM (series often up to 46.1 µM), without a hit: top-dose activity, positive = more growth. 0.4% of 270,000 active. AID 2326, 2010; note: actives are rising curves; nearly all actives have a fitted effect of over 50% in size
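OD600 was taken as the measure of yeast growth restored by compound in an NS1-expressing S. cerevisiae strain. Cells had been washed out of glucose medium and diluted 1:100 into galactose -URA medium, pH 6.0.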
LASV entry inh: qHTS for Inhibitors of binding or entry into cells for Lassa Virus. AID 540256, 2011. Potency, µM (titrated, usually from 37.9 µM), without a hit: at the highest dose activity change, negative = inhibition, usual class: inhibitors. 1.2% of 300,000 active. Lassa virus pseudotype entry inhibition, cell reporter; control for the full effect not named in the record; active means well fitted inhibition curve with a large enough effect; inconclusive means small, poorly fitted or top-dose-only effect, or effect the other way; inactive means flat fitted curve, though single readings scatter; tested in HEK293 cells; note: % is set by controls: 0 for no effect and ±100 for the full control effect; nearly all actives have a fitted effect of over 50% in size; luciferase read-out
Cruzain inh noDet: qHTS Assay for Promiscuous and Specific Inhibitors of Cruzain (without detergent). Cruzipain (Trypanosoma cruzi), P25779. purified cruzain, Z-FR-AMC fluorescence, no detergent. 2.3% of 200,000 active. Potency, µM, without a hit: max response, negative = inhibition, usual class: inhibitors. AID 1476, 2009; active = well fitted curve in the direction sought with a large enough effect; inconclusive = small, poorly fitted or top-dose-only effect, or another doubt; inactive = no such curve, though single readings can be large; an effect the other way counts as inactive or inconclusive;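 note: plate controls were enzyme without inhibitor for no effect and buffer without enzyme for full effect; nearly all actives have a fitted effect of over 40% in size; top concentration of the series not given in the record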
Target sequence (P25779 123-467 limits assumed): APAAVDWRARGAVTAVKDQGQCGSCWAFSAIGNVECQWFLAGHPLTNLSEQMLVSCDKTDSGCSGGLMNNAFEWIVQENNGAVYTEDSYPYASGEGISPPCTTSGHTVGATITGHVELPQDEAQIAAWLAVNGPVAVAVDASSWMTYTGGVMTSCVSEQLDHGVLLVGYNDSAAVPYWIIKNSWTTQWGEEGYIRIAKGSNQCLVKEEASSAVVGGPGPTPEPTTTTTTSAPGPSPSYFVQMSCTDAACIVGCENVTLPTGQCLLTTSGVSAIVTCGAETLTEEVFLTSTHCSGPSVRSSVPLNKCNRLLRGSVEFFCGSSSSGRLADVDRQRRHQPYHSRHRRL
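Detergent-free condition (0.00005% Triton X-100) in acetate buffer pH 5.5 with DTT. 1.5 nM enzyme and compound were pre-mixed 15 min, then 2 uM Z-FR-AMC substrate added; reaction progress from fluorescence change between first and third reads (60 s).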
SARS PLP yeast: qHTS of Yeast-based Assay for SARS-CoV PLP; S. cerevisiae expressing SARS-CoV PLpro, growth rescue; control for the full effect not named in the record; Potency, µM (highest dose often 32.9 µM), without a hit: at the top dose activity, positive = growth rescue; 0.19% of 330,000 active; AID 485353, 2010; note: 0% is about no effect; nearly all actives have a fitted effect of over 55% in size; growth read by luminescence after 48 h
Cruzain Triton: qHTS Assay for Promiscuous and Specific Inhibitors of Cruzain (with detergent) | Potency, µM, without a hit: max response, negative = inhibition, usual class: inhibitors | Cruzipain (Trypanosoma cruzi), P25779 | purified cruzain, Z-FR-AMC fluorescence, 0.01% Triton | 0.43% of 200,000 active; active = well fitted curve in the direction sought with a large enough effect; inconclusive = small, poorly fitted or top-dose-only effect, or another doubt; inactive = no such curve, though single readings can be large; an effect the other way counts as inactive or inconclusive;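 note: plate controls were neutral wells for no effect and buffer without enzyme for full effect; nearly all actives have a fitted effect of over 40% in size; top concentration of the series not given in the record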
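Steps: dispense cruzain (1.5 nM final) in acetate buffer pH 5.5 with DTT and 0.01% Triton X-100; pin-transfer compounds; incubate 15 min RT; add Z-FR-AMC (2 uM final); read fluorescence every 30 s, using the 60 s intensity change.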
MARV entry inh: qHTS for inhibitors of binding or entry into cells for Marburg Virus; Potency, µM (doses to about 37.8 µM), for the others: at the highest dose activity change, negative = inhibition, hits mostly inhibitors; 1.8% of 300,000 active; Marburg virus pseudotyped entry inhibition, cell reporter; control for the full effect not named in the record; about a third of the inactives were read at about 46 µM; AID 540276, 2011; active = well fitted inhibition curve with a large enough effect; inconclusive = small, poorly fitted or top-dose-only effect, or effect the other way; inactive = flat fitted curve, though single readings scatter; tested in HEK293 cells; about a fifth of its hits are not listed in these tables; note: % is set by controls: 0 for no effect and ±100 for the full control effect; luciferase read-out
2A StopGo: High Throughput Screening for Foot and Mouth Disease Virus Antivirals | human cells with a luciferase reporter of 2A StopGo recoding; control for the full effect not named in the record | Potency, µM (highest dose often 57.9 µM), inactives show at the top dose signal change, negative = less light | AID 1159524, 2015 | 1.2% of 410,000 active; active = well fitted falling curve with a large enough effect; inconclusive = small, poorly fitted or top-dose-only effect; inactive = no such curve, though single readings can be large or run the other way; tested in HEK293T cells; note: % is set by controls: 0 for no effect and ±100 for the full control effect; nearly all actives have a fitted effect of over 45% in size; luciferase light after 4 h
* = called active by the depositor; ? = inconclusive; . = not tested or not shown; & = joins results of further samples; [ ] = remark or other dose. Unless noted, calls come from the whole dose curve; as a rule, active means well fitted rising curve with a large enough effect; inconclusive means small, poorly fitted or top-dose-only effect; inactive means no such curve, though single readings can be large or run the other way. Potency is the fitted concentration of half-maximal effect.

SMILES	RE007 growth inh	NS1 inh	LASV entry inh	Cruzain inh noDet	SARS PLP yeast	Cruzain Triton	MARV entry inh	2A StopGo
O=C(c1ccccc1Br)N1CCc2c([nH]c3ccccc23)C1	-15%	-31%	.	.	-1%	.	.	-7%
Cc1csc(SCC(=O)Nc2ccc3[nH]c(=O)[nH]c3c2)n1	-13%	.	8%	.	3%	.	?	-10%
CCC(C#CCN1CCOCC1)(CC)OCCC#N	18%	-5%	-3%	8%	2%	-0.3%	?	6%
COc1ccc(OC)c(CCNC(=O)CCn2ccc3cc(S(=O)(=O)N4CCCC4)ccc32)c1	4%	-8%	.	.	2%	.	.	-16%
COc1ccc(N2C3=C(C(=O)CC(C)(C)C3)C(c3cnn(C)c3)C3=C2CC(C)(C)CC3=O)cc1	30%	2%	?	.	0%	.	-11%[46.1 µM]	-11%
COc1ccc(S(=O)(=O)N2CCc3ccccc32)cc1NC(C)=O	-9%	4%	?	.	-1%	.	-24%[46.1 µM]	52%[activator]
O=C(CSc1nnc(Nc2ccccc2F)s1)Nc1cccc(S(=O)(=O)N2CCCCC2)c1	4%	25%	?	?	1%	-3.7%	?	?
CCOC(=O)C1CCN(C(=O)COc2ccc(N(C)S(=O)(=O)c3cccs3)cc2)CC1	-1%	-15%	-3%	20%	-3%	1.0%	7%&7%	?
COc1ccc(-c2csc(N3CCC(C(N)=O)(N4CCCCC4)CC3)n2)cc1	-13%	-18%	23µM*	-2%	-2%	-1.7%	-38%	.
CCCCC(CC)C(=O)Nc1ccc(C)c(O)c1 (stereo unspecified)	22%	4%	5%	.	0%	.	?	-4%
CCCCOc1nc2ccccc2nc1NS(=O)(=O)c1ccc(F)cc1	1%	-3%	.	.	0%	.	.	-23%
O=C(O)c1cccc(S(=O)(=O)N(Cc2ccccc2)c2ccccc2)c1	10%	.	11%	.	2%	.	5%[46.1 µM]	2%
CC(C)(C)NC(=O)CCc1ncc(C(F)(F)F)cc1Cl	10%	.	?	.	3%	.	4%[46.1 µM]	-10%
O=C(N/N=C/c1ccccn1)c1cc(C2CC2)[nH]n1	-7%	-1%	-27%[46.1 µM]	.	-4%	.	?	12%
O=c1ccc(C(F)(F)F)cn1Cc1cc(=O)n2ccsc2n1	12%	.	?	.	3%	.	3%	7%
CC(=O)NC(CC(=O)NCc1ccncc1)c1ccccc1 (stereo unspecified)	4%	?	.	.	5%	.	.	15%
Cc1nn(C)c(C)c1S(=O)(=O)N(CC(=O)Nc1ccc2c(c1)OCO2)c1ccc(C(C)C)cc1	2%	-14%	.	5%	-11%	-5.8%	.	-22%
Cc1ccc(-n2nc3c(=O)n(C(C)C(=O)NCCc4cccs4)nc(C)c3c2C)cc1 (stereo unspecified)	0%	16%	.	.	7%	.	.	?
CC(C)Cn1c(N)c(C(=O)COC(=O)C2=COCCO2)c(=O)n(C)c1=O	13%	7%	15%	0%	1%	1.3%	-8%&-8%	-28%
O=c1[nH]c(=O)n(CCC2=CCCCC2)c(O)c1C=NCCCn1ccnc1	-3%	1%	0%	-2%	5%	2.5%	23%	-23%
c1cc(-c2noc(CCC3CCCC3)n2)ccn1	-10%	-44%	-1%	1%	-3%	-6.0%	1%[46.1 µM]	0%
CSc1nc(C(=O)N2CCCC(Nc3ccc(C)c(C)c3)C2)cs1 (stereo unspecified)	-1%	1%	-27%	.	-2%	.	0%	-14%
CCN(CC)C(=O)C(Cc1ccccc1)N1C(=O)c2ccccc2C1=O (stereo unspecified)	4%	-2%	6%	-9%	-27%	-3.0%	13%	-19%
CC(=O)c1ccc(S(=O)(=O)N(C)CCCC(=O)N(C)Cc2c(F)cccc2Cl)cc1	-25%	-1%	4%	.	-26%	.	-10%	6%
COCCNC(=O)C(C)OC(=O)c1nsc(Cl)c1Cl (stereo unspecified)	15%	-3%	-14%	4%	-2%	0.4%	6%	15%
O=C(CN1CCN(c2ccccn2)CC1)Nc1ccc(OC(F)(F)F)cc1	1%	-4%	19%[46.1 µM]	.	0%	.	8%[46.1 µM]	-13%
CCN1CCN(CC(=O)c2c[nH]c3ccc(C)cc23)CC1	-3%	15%	4%	-11%	-3%	1.0%	-12%	13%
CC(CNC(=O)c1cc2ccccn2n1)c1ccccc1 (stereo unspecified)	.	.	17%[46.1 µM]	10%	.	0.4%	.	22%
CC(=O)Nc1cc(-c2nn(C)c(=O)c3ccccc23)ccc1N1CCOCC1	7%	4%	-1%	3%	12%	7.1%	-3%	5%
COc1ccc(Cc2nnc(SCC(=O)Nc3cc(Cl)ccc3C)[nH]c2=O)cc1	5%	.	11%	.	-4%	.	13%	-30%
COc1ccc(C(=O)c2ccc(-c3ccc(OC)cc3)nc2)cc1	-6%	1%	.	.	2%	.	.	6%
Cc1cnc(NC(=O)c2c(-c3ccccc3)noc2C)s1	1%	-1%	.	.	0%	.	.	-25%
CC(Oc1ccc(Cl)cc1)C(=O)/C=C/N(C)C (stereo unspecified)	5%	2%	-6%	-5%	-8%	-3.3%	17%	-5%
O=C(Nc1nccs1)c1ccc(N2C(=O)[C@@H]3[C@H](C2=O)[C@H]2C=C[C@@H]3C2)cc1	7%	3%	.	.	1%	.	.	31%
COC(=O)c1sccc1NC(=O)c1ccco1	0%	-1%	-2%	4%	1%	3.2%	-11%	6%
O=C(Nc1cc(Cl)ccc1-n1cncn1)c1cncc(Br)c1	1%	.	-19%	.	4%	.	?	-12%
COC(=O)c1ccc(COc2ccccc2/C=N/NS(=O)(=O)c2ccc(C)cc2)cc1	-9%	2%	-31%[14.3 µM]	?	-5%	2.6%	?	59%[activator]
Cn1c(=O)c(=O)n(C)c2cc(S(=O)(=O)Nc3ccc4c(c3)OCCO4)ccc21	13%	-4%	-1%	-10%	-1%	-1.6%	9%	40µM*
COC(=O)c1c(N)sc2c1CCN(c1ncc(C(F)(F)F)cc1Cl)C2	-7%	28%	-23%	?	-2%	-10%	?	?
CC(C)(C)C1(CCO)C(=O)NC(=S)NC1=O	-14%	.	5%	.	.	.	?	-19%
COc1ccc(C)cc1NC(=O)c1cc(S(=O)(=O)N2CCc3ccccc3C2)ccc1F	.	.	16%[46.1 µM]	?	.	0.6%	.	-22%
O=C(CCN1C(=O)C2CC=CCC2C1=O)Nc1nccs1 (stereo unspecified)	-9%	-2%	.	.	?	.	.	6%
Cc1cc(Nc2ccc(F)cc2)n2c(nc3ccccc32)c1C#N	.	.	1%[46.1 µM]	-3%	.	-2.0%	1%[46.1 µM]	?
O=C1CCCN1C(=O)COc1ccccc1[N+](=O)[O-]	4%	.	9%	.	-2%	.	3%[46.1 µM]	-13%
CCOc1ccc(C(=O)c2cn(CC(=O)Nc3cccc(OC)c3)c3cc4c(cc3c2=O)OCCO4)cc1	.	.	?	-14%	.	-3.3%	?	-15%
c1ccc(SCCc2ccncc2)cc1	-6%	-3%&-14%	11%	-5%&-5%	-2%	1.7%&2.5%	0%	-15%
CCc1nc(SCC(=O)Nc2ccc(F)cc2F)c2c(=O)n(C)c(=O)n(C)c2n1	-8%	3%	?	.	-4%	.	12%	-33%
CCOC(=O)C1CCN(C/C=C/c2ccccc2OC)CC1	4%	-13%	-19%	-3%	5%	2.7%	-11%	-14%
O=C(CSCc1cccc(Br)c1)NC1CC1	5%	20%	-4%	3%	?	-0.4%	1%	5%
O=C(NCCN1C(=O)S/C(=C\c2ccc(Cl)c(Cl)c2)C1=O)c1ccc2c(c1)C(=O)N(Cc1ccncc1)C2=O	-3%	?	17%	13µM*	-7%	-8.5%	16%	?
Other results
SMILES	RE007 growth inh	NS1 inh	LASV entry inh	Cruzain inh noDet	SARS PLP yeast	Cruzain Triton	MARV entry inh	2A StopGo
Cc1sc2nc(C(C)C)oc(=O)c2c1C	0%	2%	2%	-2%	-9%	-1.5%	15%	7%
O=C(CSc1nc2c(c(C(F)(F)F)n1)CCc1ccccc1-2)NCc1ccccc1	3%	6%	1%	-14%	?	-14%	?	-19%
CCCCn1ccnc1C(=O)c1ccc(S(=O)(=O)N(CCOC)CCOC)cc1	2%	-11%	-20%	?	3%	-7.3%	-1%	7%
CC1=NCCc2c1[nH]c1ccccc21	-5%	2%	.	.	6%	.	.	-18%
N/C(=N/OC(=O)c1ccccc1Cl)c1nonc1N	28µM*	.	1%[46.1 µM]	.	0%	.	13%[46.1 µM]	?
Cc1ccc(S(=O)(=O)N2CCC(C(=O)N[C@@H](C)C(=O)NCc3ccccc3)CC2)cc1	-1%	-11%	-1%	17%	10%	4.8%	-17%	-19%
COc1cccc(NC(=O)c2ccc3c(c2)OCCO3)c1	?	-41%	1.1µM*	.	-33%	.	?	-43%
Cc1noc(C)c1CSc1nc2ccccc2c(=O)n1-c1ccc(Cl)cc1	2%	8%	?	20µM*	-10%	0.9%	?	-15%
O=C(NCCCO)c1cc2c(cn1)[nH]c1ccccc12	4%	-2%	.	.	-1%	.	.	37%[activator]
c1ccc(-c2nc3nc4ccccc4nc3n2CC2CCCO2)cc1 (stereo unspecified)	0%	1%	-16%[46.1 µM]	.	0%	.	-22%[46.1 µM]	4%
CCOC(=O)CCNC(=O)N1CCCC(CNS(=O)(=O)Cc2ccccc2)C1 (stereo unspecified)	-1%	2%	.	.	13%	.	0%[46.1 µM]	-4%
COc1ccc(-c2c(C)nn3c(C(F)(F)F)cc(C)nc23)cc1OC	.	.	-21%[46.1 µM]	?	.	-1.5%	.	-32%
COc1ccc(C(=O)c2oc3ccc(OC)cc3c2NC(C)=O)cc1	0%	.	10%	.	11%	.	-2%[46.1 µM]	-3%
CN1C(=O)[C@H]2[C@@H](/C=C/c3ccccc3)N3C(=O)CN(CCO)C(=O)[C@@]3(C)[C@H]2C1=O	0%	-2%	.	.	-4%	.	.	-2%
